# Bioassay records deposited in PubChem BioAssay by National Center for Advancing Translational Sciences (NCATS).
# TRPML1 ag – human mucolipin-1 channel agonism; 410,000 tested, 0.12% active; AID 624414; TRPML1-expressing cells, Ca2+ dye fluorescence, FDSS; host cell line not named in the record; reference of the full effect not given here; activation, % (no concentration beside the values); Q9GZU1; in the data active = activation above about 50%; inconclusive = about 30% to 50%; inactive = below about 30%; note: 0% is about no effect; the text of the record puts the active cut at 80%
#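 Tet-induced TRPML1-DL cells, 1,500 per well, cultured overnight, were loaded with a no-wash Ca2+ dye for 45–90 min. Calcium fluorescence was recorded on the FDSS for 110 s after compound addition, before the EC80 agonist (4 uM 54-4) was added.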
# Sfp inh – Sfp phosphopantetheinyl transferase inhibition. Q9F4F7. Biochemical Sfp PPTase activity, qHTS. Potency, µM, inactives show max response, negative = inhibition, most hits filed as inhibitors. 310,000 tested, 3.5% active. AID 1490; active = well fitted inhibition curve with a large enough effect; inconclusive = small, poorly fitted or top-dose-only effect, or another doubt; inactive = no such curve, though single readings can be large or run the other way;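 note: the enzyme is Sfp with the accession as filed and its product quenches rhodamine fluorescence; potency is the fitted concentration of half-maximal effect; 0% = enzyme reaction without inhibitor and -100% = no enzyme wells; top concentration of the series not given in the record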
#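 Compounds were incubated with enzyme (final 15 nM) for 15 min at room temperature before substrate addition started the reaction. Fluorescence at 525 nm excitation, 598 nm emission was recorded immediately and after 30 minutes.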
# TRPV1 PAM – human TRPV1 potentiation; TRPV1-expressing cells, Fluo-8 calcium influx, capsaicin EC20 potentiation; host cell line not named in the record; control for the full effect not named in the record; Q8NER1; 320,000 tested, 0.02% active; potentiation, % at 8.33 µM; active means potentiation above 80%; inconclusive means 30% to 80%; inactive means below 30%; note: 0% is about no effect
# Target sequence (Q8NER1 whole entry, looked up): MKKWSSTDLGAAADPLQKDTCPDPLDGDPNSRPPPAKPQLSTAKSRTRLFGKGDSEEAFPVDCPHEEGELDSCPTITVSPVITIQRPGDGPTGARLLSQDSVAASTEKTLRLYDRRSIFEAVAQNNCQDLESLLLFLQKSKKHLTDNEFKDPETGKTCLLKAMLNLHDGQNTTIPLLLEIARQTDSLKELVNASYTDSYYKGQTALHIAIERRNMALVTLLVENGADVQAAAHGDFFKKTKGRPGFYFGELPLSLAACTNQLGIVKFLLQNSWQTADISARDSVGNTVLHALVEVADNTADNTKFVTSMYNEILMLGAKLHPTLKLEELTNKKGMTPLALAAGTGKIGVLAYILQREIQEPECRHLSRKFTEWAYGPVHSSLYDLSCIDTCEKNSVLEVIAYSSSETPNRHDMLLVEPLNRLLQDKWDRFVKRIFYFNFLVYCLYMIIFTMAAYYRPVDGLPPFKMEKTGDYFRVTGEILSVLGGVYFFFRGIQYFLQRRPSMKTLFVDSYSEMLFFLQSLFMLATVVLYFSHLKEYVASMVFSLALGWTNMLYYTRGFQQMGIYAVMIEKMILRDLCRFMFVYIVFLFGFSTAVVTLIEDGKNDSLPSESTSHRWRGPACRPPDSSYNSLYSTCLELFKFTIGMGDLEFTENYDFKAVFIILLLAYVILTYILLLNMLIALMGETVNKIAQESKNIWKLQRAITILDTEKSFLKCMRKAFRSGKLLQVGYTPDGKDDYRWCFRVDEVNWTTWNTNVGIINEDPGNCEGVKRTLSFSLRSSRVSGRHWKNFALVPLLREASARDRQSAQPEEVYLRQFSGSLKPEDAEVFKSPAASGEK
#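 Cells expressing TRPV1 were dye-loaded with Fluo-8 and read kinetically: 10 s baseline, 3 min after compound (agonist portion), then 2 min after EC20 capsaicin (allosteric enhancer portion). Calcium-bound dye fluorescence at 480/520 nm.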
# Menin-MLL FL inh – inhibitors of human menin-MLL interaction, wild-type MLL peptide; Fluorescence polarization, fluorescein-MLL peptide displacement from menin; FP activity change, % at 61.4 µM; 290,000 tested, under 10 active; inconclusive = falling polarisation curve, or a change in total fluorescence; inactive = total fluorescence flat and polarisation flat or rising; no compound was filed as active; the % refers to the polarisation; negative = inhibition;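 note: % of control where 0% means no effect; inhibitors lower the polarisation; unlabelled MLL peptide was the positive control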
# TRPML1 blocker – human mucolipin-1 channel inhibition; Q9GZU1; TRPML1-inducible cells, Ca2+ dye fluorescence, FDSS; stronger effect = lower value; inhibition of EC80 agonist-evoked calcium signal; activity change, negative = inhibition, % (concentration not given with the values); 390,000 tested, 0.02% active; in the data active means activity change below about -50%; inconclusive means about -30% to -50%; inactive means above about -30%;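 note: stimulus is agonist 54-4 at its EC80 concentration; % is set by controls: 0 for no effect and ±100 for the full control effect; compound concentration not given in the record; the text of the record puts the active cut at -80%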
#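 TRPML1-DL cells, Tet-induced overnight (~16 h, 37 °C) at 1,500 cells/well, were loaded with Ca8 no-wash dye plus quencher for 45-90 min at room temperature. Compounds were pinned during FDSS kinetic reading; agonist 54-4 at EC80 (4 uM final) then added.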
# ClpP mod – qHTS Assay for Activators of ClpP | ATP-dependent Clp protease proteolytic subunit (Bacillus subtilis (strain 168)), P80244 | purified B. subtilis ClpP, FRET peptide cleavage, 20 min | Potency, µM (top dose mostly 57.5 µM), without a hit: at the top dose activity change, negative = active | 340,000 tested, 1.9% active | AID 651965, 2013; active = well fitted falling curve with a large enough effect; inconclusive = small, poorly fitted or top-dose-only effect; inactive = no such curve, though single readings can be large or run the other way; note: potency is the fitted concentration of half-maximal effect; the source files actives as falling curves though it sought activators and does not explain the sign; nearly all actives have a fitted effect of over 65% in size; many hits overshoot -100%
# Target sequence (P80244 whole entry, looked up): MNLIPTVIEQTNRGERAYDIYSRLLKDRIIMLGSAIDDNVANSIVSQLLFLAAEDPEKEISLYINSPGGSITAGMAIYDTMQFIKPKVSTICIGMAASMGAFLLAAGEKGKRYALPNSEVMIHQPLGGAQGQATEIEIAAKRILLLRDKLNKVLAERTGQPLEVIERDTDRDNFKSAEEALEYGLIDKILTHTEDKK
#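 Buffer: 100 mM Tris/HCl pH8, 100 mM KCl, 0.05% low protease BSA, 2.5% glycerol, 0.01% Tween-20. ClpP 10 microg/mL final; 20 min RT; delta FRET normalized to ADEP and DMSO controls.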
# PINK1 expr mod – modulators of PINK1 expression; PINK1 immunofluorescence, high-content cytometry, 24 h; Potency, µM (titrated, usually from 76.6 µM), for inactives: at the top dose activation (PINK1 increase), actives largely listed as activators; 410,000 tested, 0.2% active; active = well fitted activation curve with a large enough effect; inconclusive = small, poorly fitted or top-dose-only effect; inactive = flat fitted curve, though single readings scatter; cell line not stated here;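 note: potency is the fitted concentration of half-maximal effect; % of control where 0% means no effect; nearly all actives have a fitted effect of over 65% in size; a mitochondrial uncoupler was the plate control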
#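 PINK1 protein, normally rapidly degraded, was detected by immunofluorescence after 24 hour compound treatment of a stable cell line. Titration data (5 concentrations) came from laser-scanning cytometry, with CCCP-treated wells as controls.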
# * marks the source's active call; other numbers are inactive results; ? = inconclusive; / = not tested or not shown; [ ] = remark or other dose.
SMILES,TRPML1 ag,Sfp inh,TRPV1 PAM,Menin-MLL FL inh,TRPML1 blocker,ClpP mod,PINK1 expr mod
CC1=C(C(=O)Nc2cc(C)ccn2)C(c2ccc(C)cc2)C2=C(CCCC2=O)N1 (stereo not drawn),-0.3,10%,12,1.0,0,28µM*,2.0%
CCOC(=O)N(C)[C@H]1C[C@H]2c3[nH]c4ccccc4c3CCN2C[C@H]1[C@H](C)O,0.3,/,/,/,/,?,1.3%
COc1ccc(C2=NS(=O)(=O)N(C)C(C(=O)N3CCOCC3)=C2)cc1,0.3,-13%,19,-1.4,1,-2.9%,0.6%
CCNc1nc(Oc2ccc(C(=O)OCC)cc2)nc(SC)n1,2.0,12%,-1,-1.5,-2,-0.2%,4.0%
CCOC(=O)Cc1csc(NC(=O)CN2C(=O)c3ccccc3C2=O)n1,-0.4,-2%,?,1.0,-7,-0.5%,0.9%
O=C(Nc1ccc(SC(F)(F)F)cc1)c1ccccn1,0.1,13%,-16,-5.9,19,/,6.4%
O=S(=O)(/C=C/c1ccccc1)NCc1ccccc1Cl,1.3,9%,4,-0.6,52,-9.3%,-1.5%
O=C(COC(=O)CNC(=O)c1ccc(Cl)cc1)Nc1ccc2c(c1)OCCO2,-0.1,-2%,12,1.7,19,1.6%,1.0%
O=C(NCC(=O)N1CCC2(CC1)NCCc1[nH]cnc12)c1ccccc1F,-0.6,11%,8,/,6,0.0%,-1.6%
COc1ccc(CCNC(=O)Cn2nnc(-c3cccc(OC)c3OC)n2)cc1OC,0.0,15%,8,-3.3,12,-0.8%,-4.9%[38.3 µM]
CCCCNC(=O)c1ccc2c(c1)NC(=O)C(CS(=O)(=O)Cc1ccc(C)cc1)N2 (stereo not drawn),-0.4,/,/,/,-8,?,-0.8%
Cc1nn(C2CC(O)C(O)C(CO)O2)c(=O)[nH]c1=O (stereo not drawn),-0.2,/,/,/,-26,28µM*,0.8%
O=C(NCCc1csc(-c2ccc(F)cc2)n1)c1cccc(F)c1,2.1,/,/,/,4,-2.3%,0.0%
Cc1csc(NC(CO)c2nc3ccccc3n2CCOCCO)n1 (stereo not drawn),-0.6,/,/,/,-3,-0.6%,0.6%
C=CCn1c(-c2cccc3ccccc23)n[nH]c1=S,0.4,7%,0,-3.5,2,-2.2%,/

# Two entries from above, with tabs:
SMILES	TRPML1 ag	Sfp inh	TRPV1 PAM	Menin-MLL FL inh	TRPML1 blocker	ClpP mod	PINK1 expr mod
O=C(Nc1ccc(SC(F)(F)F)cc1)c1ccccn1	0.1	13%	-16	-5.9	19	/	6.4%
O=S(=O)(/C=C/c1ccccc1)NCc1ccccc1Cl	1.3	9%	4	-0.6	52	-9.3%	-1.5%

# Later entries
SMILES,TRPML1 ag,Sfp inh,TRPV1 PAM,Menin-MLL FL inh,TRPML1 blocker,ClpP mod,PINK1 expr mod
COc1ccccc1NC(=O)Cn1c(=O)oc2cc(S(=O)(=O)N3CCCC3)ccc21,-0.6,10%,-13,-0.3,4,-0.8%,0.2%
COc1ccc(C(=O)N2CCN(C(=O)c3ccncc3)CC2)cc1,-0.2,3%,-2,3.5,8,0.9%,-0.8%[38.3 µM]
Cc1ccccc1NC(=O)c1ccc(NC(=O)N2CCSc3ncccc32)cc1,1.8,/,/,/,7,?,-0.5%
CC(=O)c1ccc(Nc2ccc3cc(S(=O)(=O)N4CCCC4)ccc3n2)cc1,1.7,/,/,/,7,4.3%,2.7%
Cc1ccc(C)c(NS(=O)(=O)c2cc(C(=O)NCc3ccco3)ccc2C)c1,0.1,5%,-9,2.6,-9,1.4%,2.5%[38.3 µM]
Cc1cccc(OCc2nnc(SCC(=O)O)n2Cc2ccccc2)c1,-1.0,-1%,-3,-2.2,-4,/,3.1%
CCc1ccc(C(=O)c2cn(CC(=O)Nc3ccc(OC)c(OC)c3)c3ccc(C)cc3c2=O)cc1,1.1,/,/,/,27,2.6%,1.8%
C/C(=N\NC(=O)CC#N)C1COc2ccccc2O1 (stereo not drawn),-0.5,15%,9,-3.0,-8,/,-0.3%
COc1cccc(N2CCN(C(=O)CN3CCSc4ccc(S(=O)(=O)N(C)C)cc43)CC2)c1,1.3,/,/,/,5,-4.7%,-0.5%
Cc1cc(C)cc(OCc2nnc(N)s2)c1,1.2,-3%,2,2.8,5,/,2.1%
O=S1(=O)CCN(C2CCCC2)CC1,0.2,/,/,/,-7,0.0%,0.8%
CC(NC(=O)CN(C)S(=O)(=O)c1cccc2nsnc12)c1ccccc1 (stereo not drawn),-0.8,18%,7,0.9,-7,-0.2%,-0.6%
Cc1ccc(C(=O)NCCCn2ccnc2)cn1,3.4,6%,12,6.3,9,0.9%,1.9%
COc1ccc(CNc2cc(-c3ccccc3CN(C)C)ncn2)c(OC)c1,/,-10%,/,-3.7,/,/,0.1%
Cc1ccccc1NC(=O)Cn1c(=O)n(Cc2ccc3c(c2)OCO3)c(=O)c2ccccc21,0.5,/,/,/,-3,-1.2%,3.8%
COc1ccc(S(=O)(=O)N2CCN(CC(=O)Nc3ccc(F)c(F)c3)CC2)cc1,1.8,7%,-6,0.7,9,-0.3%,1.1%
CCCCCSc1nc(C)c(CC(=O)O)c(=O)[nH]1,-0.4,-3%,-12,0.5,13,1.2%,0.5%
C1CN(c2nc3nonc3n3nnnc23)CCO1,0.9,-2%,-5,-1.8,12,0.8%,-0.7%
Cc1ccc(C)c(Cn2cnc3ccccc3c2=O)c1,0.3,/,/,/,33,1.1%,0.7%
Cc1ccccc1NC(=S)NNC(=O)c1csc2c1CCC(C)C2 (stereo not drawn),0.0,-1%,-5,4.5,-1,2.3%,3.6%[38.3 µM]
COCC1CCN(Cc2nc(-c3cccs3)no2)C1 (stereo not drawn),-0.2,?,2,2.9,-8,/,-0.4%
COc1ccc(CCn2c(=O)[nH]c3cc(C(=O)N4CCN(c5ccccn5)CC4)ccc3c2=O)cc1OC,-0.9,9%,0,-3.2,8,11µM*,7.1%
CCc1ccc(N2C(=O)C3NN=C(C(=O)OCc4ccccc4)C3C2=O)cc1 (stereo not drawn),-0.5,-6%,0,1.8,-11,-0.5%,0.2%
Cn1c(=O)c2c(nc(Cl)n2CCOc2ccccc2)n(C)c1=O,-0.4,5%,2,-3.8,5,-0.8%,-0.3%
CCNC(=O)C1(C)CCCN(C(=O)/C=C/c2ccccc2)C1 (stereo not drawn),-0.6,/,/,/,/,1.0%,1.1%
Fc1ccc(/C=N/c2c(-c3ccc(F)cc3)nc3n2CCS3)cc1,-0.9,-13%,10,2.2,-12,2.0%,14%
FC(F)(F)c1ccc(-c2nc(=S)[nH][nH]2)cc1,-0.9,56µM*,6,-0.3,-5,/,3.0%
COc1cc(Cl)c(C)cc1NC(=O)COc1ccccc1[N+](=O)[O-],-0.4,7%,0,1.7,4,2.0%,9.9%
COc1cccc(CNC(=O)c2cc3cccc4c3n2CC(C)S4)c1OC (stereo not drawn),1.3,/,/,/,10,35µM*,0.1%
CCOC(=O)[C@]12CCC=C1N(Cc1ccco1)C(=O)[C@H](CC(=O)NCCCCc1ccccc1)C2,-0.6,/,/,/,/,-3.4%,0.8%
CCOC(=O)CSc1nnc(NC(=O)NC(C)C)s1,0.2,20%,-4,-2.8,53,-0.8%,2.2%
C[C@@H]1COC(=O)[C@@H](CC(=O)OC(C)(C)C)C/C=C\C[C@H](CC(=O)N(CCO)Cc2ccccc2)C(=O)N1,-0.3,/,/,/,-4,2.3%,-0.8%
Cc1nn(-c2ccc(N3CCCCC3)nn2)c(C)c1CCC(=O)Nc1ccc(F)cc1,0.0,6%,-5,/,34,-1.4%,-0.8%
O=C1CSC2(C(=O)N3CCCc4cccc2c43)N1c1cccc(C(F)(F)F)c1 (stereo not drawn),-0.8,10%,5,4.2,-9,-0.5%,-0.9%[38.3 µM]
O=S(=O)(NCc1ccccn1)c1ccc(F)cc1,-0.3,-10%,-1,-1.8,0,-0.5%,2.0%
Cc1ccc(C(=O)Nc2cccc(-c3cnc4ccccc4n3)c2)cc1,-0.1,7%,-8,-1.0,1,0.4%,/
CC(=O)Oc1ccc(Cl)cc1/C=C/c1ccc2ccccc2n1,2.9,?,-12,7.2,7,1.7%,6.3%
O=C1N(c2cccc3ccccc23)C(c2ccccc2)N2CCCN12 (stereo not drawn),-0.5,27%,8,1.0,-24,1.3%,0.8%
CC(C)Cc1cc(C(=O)N2CCCC(C(=O)c3cc(F)ccc3F)C2)n(C)n1 (stereo not drawn),0.8,4%,-19,-0.2,12,1.3%,-0.6%
CCN(CC)S(=O)(=O)c1ccc(OCCNS(C)(=O)=O)cc1,1.2,20%,2,-3.1,4,/,1.1%
COc1ccc(CN2C(=O)N(c3ccc(C)cc3)C(=O)C2CC(=O)Nc2ccccc2)cc1OC (stereo not drawn),-0.4,/,/,/,-6,1.3%,1.8%
Cc1cc(C)nc(NN=C2CCCC2)n1,-0.6,?,-1,6.7,-5,-1.5%,0.6%
CCc1cc(C(c2ccc(F)cc2)N2CCOCC2)c(NC(=O)c2ccccc2)s1 (stereo not drawn),1.6,0%,?,0.9,26,-5.0%,1.2%
CCOC(=O)c1cnc2c(C)cc(Cl)cc2c1N1CCN(C)CC1,-1.3,-1%,-1,0.6,-17,0.5%,1.3%
O=C1Nc2ccccc2N=C(c2ccccc2)C1N(C(=O)c1ccnc2ccccc12)c1ccccc1 (stereo not drawn),0.0,/,/,/,/,-7.8%,-1.3%
C(=C\c1ccccn1)/c1ccncc1,4.9,18%,11,-3.7,36,-2.4%,-0.7%
O=C1C=C(N2CCCCC2)c2ccccc2C1=O,0.3,/,/,/,-18,0.0%,-1.5%
CC(C)CC(=O)Nc1ccccc1N1CCN(C(=O)c2ccccc2)CC1,0.1,-6%,-11,-4.8,-6,0.5%,-1.3%
CC(=O)Nc1ccc2c(c1)C(=O)N(C1CCCCC1)C2=O,-0.9,10%,-7,3.2,-7,25µM*,-0.2%
O=C(Cc1ccccc1)Nc1ccc(C(=O)Nc2ccc(O)cc2)cc1,-0.5,8%,13,0.3,-2,3.1%,9.1%
Cn1c(SCC(=O)NCc2ccc(F)cc2)nc2ccccc21,-0.6,-8%,4,0.8,5,1.1%,9.5%
c1ccn2c(SCc3cn4ccsc4n3)nnc2c1,0.4,-13%,28,1.6,41,3.3%,-1.3%

# This is a random part of the collection; about 4.4% have a hit in one of these screens.
